High-throughput results as filed in PubChem BioAssay.
CBX7 AlphaScr: blocks human CBX7 binding to H3K27me3 peptide | normalised signal (fraction of DMSO) (concentration not given with the values) | O95931 | AlphaScreen His6-CBX7 / biotin-H3K27me3 peptide binding; stronger effect = lower value | AID 1224903 | actives 1.1% (n = 66,000); in the data active = normalised signal below about 0.5;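 note: 100 nL library stock added to about 20 µL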
Target sequence (O95931 whole entry, looked up): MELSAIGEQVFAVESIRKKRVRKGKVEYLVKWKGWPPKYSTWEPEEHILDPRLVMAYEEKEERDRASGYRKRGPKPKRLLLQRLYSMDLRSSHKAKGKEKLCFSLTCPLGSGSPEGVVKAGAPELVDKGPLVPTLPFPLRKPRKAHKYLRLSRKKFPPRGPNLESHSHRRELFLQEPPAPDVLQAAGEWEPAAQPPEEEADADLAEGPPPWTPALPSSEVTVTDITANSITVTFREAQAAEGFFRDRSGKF
CBX7 AlphaScr z-score: second read-out of CBX7 AlphaScr, no call of its own (marks repeat the call); z-score; measured here: z-score of CBX7 signal; some inactives read as strong as hits; reference of the scale not given here;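 same signal on another scale; lower means less binding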
An asterisk follows results filed as active; & = joins results of further samples. This is a subset; the hit share may differ from the screen's.

SMILES	CBX7 AlphaScr	CBX7 AlphaScr z-score
Cc1ccc(CNC(=O)c2ccc3c(c2)N(Cc2cccc(Cl)c2)C(=O)CS3)cc1	1	-0.14
O=C(Nc1ccc(F)cc1F)c1cccc2c1C(=O)N(C1CCCCC1)C2	0.85	-1.8
Fc1ccccc1-c1nc(Nc2ccc(Oc3ccc(Cl)cc3)cc2)c2ccccc2n1	1.4	11
CC(C)CCNS(=O)(=O)c1ccc2c(c1)CCN2C(=O)CCC(=O)O	0.98	-0.27
CC1=C(C(=O)Nc2cccc(C)n2)C(c2cccc(Cl)c2)C2=C(CCCC2=O)N1 (configuration not stated)	1	0.51
COc1ccc(-n2nc(C(=O)Nc3ccc(OC)c(Cl)c3)c3ccccc3c2=O)c(OC)c1	1	0.39
CNc1oc(-c2cccc(C)c2)nc1S(=O)(=O)c1ccccc1	1.1	2.3
FC(F)(F)c1cc(-c2ccc(Cl)cc2)nc(Oc2ccccc2)n1	2	4.7
Cc1ccc(Cc2c(C)nc3c(C(=O)NCC4CCCO4)c[nH]n3c2=O)cc1 (configuration not stated)	1	0.23
CCc1ccccc1NC(=O)CSc1nnc(COc2ccc(C)cc2)o1	1	0.065
CCCn1c(C2CC(=O)N(c3cc(C)cc(C)c3)C2)nc2ccccc21 (configuration not stated)	0.92	-0.33
COc1ccccc1-c1cc(C(=O)NC(C)c2ccccc2)no1 (configuration not stated)	1	0.82
COc1ccc(C(C(=O)NC2CCCCC2)N(C)Cc2ccccc2)cc1 (configuration not stated)	0.73	-6.6
O=C(NCCCN1CCN(c2cccc(Cl)c2)CC1)c1n[nH]c(=O)c2ccccc12	0.9	-2.5
O=C(CCC1CCCC1)Nc1ccc2nc3n(c(=O)c2c1)CCCCC3	1	0.44
COc1ccc(-n2c3c(cc(C(=O)Nc4cccc(Cl)c4)c2=O)C(=O)CC(C)(C)C3)cc1	1	1.1
O=C(Nc1ccc(C(F)(F)F)cc1Oc1ccc(C2CCCCC2)cc1)c1cccnc1	1.1	1.6
O=C(O)c1c2c(nc3ccc(S(=O)(=O)N4CCC(C(=O)O)CC4)cc13)CCCC2	1.1	2.8
COc1ccc(C2=NOC(C(=O)N3CCC(C)CC3)C2)cc1 (configuration not stated)	1	0.62
COc1cc(OC)c(NC(=O)CC2Oc3ccc(C)cc3NC2=O)cc1Cl (configuration not stated)	1	0.82
O=C(NCCCN1CCCCCC1)c1ccc2c(c1)N(Cc1c(F)cccc1Cl)C(=O)CS2	1.1	0.12
Cc1cccc(N2CCN(c3nnc(C(F)(F)F)s3)CC2)c1	0.98	-0.25
OCCNc1cc(-n2nc(-c3ccccc3)cc2-c2ccccc2)ncn1	0.93	-0.72
Cc1ccc(-c2nnc(Nc3ccc(CC(N)=O)cc3)c3ccccc23)cc1S(N)(=O)=O	0.97	-0.29
Nc1ccc2oc(-c3ccc(Cl)cc3Cl)nc2c1	1.2	3.9
Additional structures follow:
SMILES	CBX7 AlphaScr	CBX7 AlphaScr z-score
Cc1nc2cc(C(=O)NCCc3ccccc3)ccc2n1-c1cccc(F)c1	1	0.11
CCOc1cc(C(=O)Nc2c(C)ccc3nsnc23)cc(OCC)c1OCC	1	0.17
Fc1ccccc1N1CCN(Cc2nc(-c3ccc(Cl)cc3Cl)no2)CC1	1.3	3.3
CCN(CCNC(=O)CSCc1nc(-c2ccc(OC)cc2)oc1C)c1ccccc1	0.98	-0.18
Cc1ccc(-c2nn(C)c(=O)c3ccccc23)cc1S(=O)(=O)NCCN1CCOCC1	0.99	-0.11
O=C(NC1CCN(Cc2ccccc2)CC1)c1ccc(NC2=NC3CS(=O)(=O)CC3S2)cc1 (configuration not stated)	1	0.84
O=C(C1CCCN(S(=O)(=O)c2cccs2)C1)N1CCc2ccccc2C1 (configuration not stated)	0.88	-0.16
Cc1ccc(NC(=O)C2C3C=CC4(CNC(=O)C(c5ccc(F)cc5)N(Cc5ccccc5F)C(=O)C24)O3)cc1 (configuration not stated)	0.82	-3.8
Cc1ccc(N(CC(=O)NCCSc2nc3ccccc3s2)S(=O)(=O)c2ccccc2)cc1	1	0.038
Cc1ccc(C(=O)Nc2ccc(-c3nc4ncccc4o3)cc2)cc1Cl	0.95	-0.86
CCN(CC)S(=O)(=O)c1ccc2c(c1)N(CC(=O)N1C(C)CCCC1C)C(=O)CO2 (configuration not stated)	1.1	1.7
COc1cc(-c2nc(-c3cccs3)c(-c3cccs3)[nH]2)ccc1O	0.44*	-6.3*
CCOC(=O)c1cc(-c2ccccc2)n(CCC(=O)Nc2ccc(OCC)cc2)c1C	0.97	-0.6
COc1ccc(OC)c(NC(=O)c2c(C)c(-c3ccccc3)nc3ccccc23)c1	0.74	-0.91
COC(=O)c1ccc(N2C(=O)CC(NCCc3ccc(OC)cc3)C2=O)cc1 (configuration not stated)	1.2	1.7
Cc1ccc(CNC(=O)CN2C(=O)CSc3ncccc32)cc1	1	0.095
COc1cc(CN2CCN(Cc3cccc4ccccc34)CC2)cc(OC)c1	0.97	-0.8
O=S(=O)(Nc1ccccc1Cl)c1cccc2cccnc12	0.98	-0.54
Cc1cc(NC(=O)CSc2nnc(C)c(=O)[nH]2)no1	1.1	1.8
CCOC(=O)c1cnc2c(OC)cccc2c1N1CCC(C)CC1	0.65	-0.39
CCCN1Cc2cccc(C(=O)Nc3ccccc3CC)c2C1=O	1	0.032
COc1ccccc1N1CCN(c2cc(=O)n(-c3ccccc3C)c(=O)[nH]2)CC1	1.1	1.4
CCOC(=O)c1oc2ccc(CNC3CCCCC3)c(Cl)c2c1C	0.98	-0.023
COC(=O)c1ccccc1NC(=O)CS(=O)(=O)Cc1nc(-c2ccc(C)cc2)oc1C	0.63	-0.77
CCOC(=O)CNc1c(NCc2ccc(OC)cc2)c(=O)c1=O	1.1	3.1
Later entries
SMILES	CBX7 AlphaScr	CBX7 AlphaScr z-score
O=C(NCCC1=CCCCC1)C1(S(=O)(=O)c2ccc(Cl)cc2)CC1	1	1.6
C#CCn1c2ccccc2c2ccccc21	1.1	3
COc1ccc(-c2cc3nc(Cc4ccccc4)cc(=O)n3[nH]2)cc1	1.1	1.1
COc1ccc(Cc2nc3cc(C)c(C)cc3n(C)c2=O)cc1	0.98	-0.61
Cn1cnc(C(=O)O)c1N	1	0.45
COc1ccc(OC)c2[nH]c(=O)c(CCNS(C)(=O)=O)cc12	1	0.61
CC(C)OCCCNC(=O)c1ccc2c(c1)NC(=O)c1ccccc1N2	1	0.09
CCN1CCN(C(=O)C2CCN(c3nn4c(=O)cc(C)nc4s3)CC2)CC1	1	1.2
COc1ccc2nc(NC(=O)C3CCN(S(=O)(=O)c4cccc5nsnc45)CC3)sc2c1	0.89	-3.1
CCOC(=O)c1cnc2cc(Cl)c(OC)cc2c1Nc1cc(C)ccc1OC	1	0.31
Cc1ccc(-c2nnc(Nc3cccc(Cl)c3)c3ccccc23)cc1S(=O)(=O)N1CCN(C)CC1	0.86	-0.16
CC(C)(C)NC(=O)CCn1nc(-c2ccc(Cl)cc2)c2ccccc2c1=O	0.96	-1.2
Cc1cc(C)cc(NC(=O)Cn2nnc(-c3ccccc3Cl)n2)c1	1.2	1.8
Cc1cccc(C)c1Nc1nc(-c2ccccc2)nc2ccccc12	1.1	1.3
CC1CCC(NC(=O)CN2C(=O)COc3ccc(S(=O)(=O)N4CCC(C)CC4)cc32)CC1 (configuration not stated)	1	1.7
Cc1nc2c(=O)sc3ccccc3c2n1-c1ccccc1	1	0.88
COc1nnc(-c2ccc(C)c(S(=O)(=O)N(C)C)c2)c2ccccc12	1.1	0.93
CCCc1cc(C(=O)Nc2cc(Cl)ccc2OC)no1	1.2	2.7
CCC(=O)N1CCc2cc(S(=O)(=O)CCC(=O)Nc3nc(C)cs3)ccc21	0.94	-0.64
CCc1nc2ccc(C(=O)NCc3ccc(Cl)cc3)cc2nc1CC	0.96	-0.48
Cn1cnnc1-c1cccc(NS(=O)(=O)c2ccc(Cl)cc2)c1	0.98	-0.63
CC(C)(C#CCN1CCOCC1)OCCOCc1ccccc1	0.94	-1.4
COc1cc(-c2nc(Cc3ccccc3Cl)no2)cc(OC)c1OC	0.9	-1.5
COc1ccc(-c2cc(C(=O)Nc3nc4ccc(S(C)(=O)=O)cc4s3)c3ccccc3n2)cc1	0.95	-1.4
O=C(Cn1cnc2sc3c(c2c1=O)CCCC3)NCC(=O)Nc1cccc(Cl)c1	0.99	-0.23

Some of the entries so far, field by field:
COc1ccc(-n2nc(C(=O)Nc3ccc(OC)c(Cl)c3)c3ccccc3c2=O)c(OC)c1
  CBX7 AlphaScr: 1 | CBX7 AlphaScr z-score: 0.39

CNc1oc(-c2cccc(C)c2)nc1S(=O)(=O)c1ccccc1
  CBX7 AlphaScr: 1.1 | CBX7 AlphaScr z-score: 2.3

FC(F)(F)c1cc(-c2ccc(Cl)cc2)nc(Oc2ccccc2)n1
  CBX7 AlphaScr: 2 | CBX7 AlphaScr z-score: 4.7

Next results:
SMILES	CBX7 AlphaScr	CBX7 AlphaScr z-score
Cc1ccc(NC(=O)CCc2c(C)nc3c(-c4ccccc4)c(C)nn3c2C)c(C)c1	0.99	-0.16
COCCCNC(=O)c1ccc2c(c1)ncn2C1CCCC1	0.98	-0.51
CC1CCN(c2c(NCc3ccc(C(=O)NCc4ccccc4)cc3)c(=O)c2=O)CC1	0.99	-0.29
O=C(CN1CCN(Cc2ccc(F)cc2)C1=O)NC1CCCCC1	0.91	-1.2
Cc1oc(-c2ccccc2F)nc1CS(=O)(=O)CC(=O)NC(C)CCc1ccccc1 (configuration not stated)	0.99	-0.39
CCn1c(=N)n(CCOc2ccc(Cl)cc2)c2ccccc21	0.93	-1.6
COc1cc(OC)cc(C(=O)Nc2ccc(O)c(-c3nc4ccccc4o3)c2)c1	0.94	-0.64
COc1ccc(C2CC(=O)N(CC(=O)Nc3cccc(OC)c3)c3ccccc3S2)cc1 (configuration not stated)	0.7	-5
CC1(C)CC(=O)c2c(nn(-c3ccccc3)c2-c2ccncc2)C1	1	1.9
COc1ccccc1-c1cc(C(=O)Nc2ccccc2C(F)(F)F)no1	1	0.22
Cc1ccc2c(c1)NC(=O)C(CC(=O)Nc1cccc(C)c1C)O2 (configuration not stated)	1.1	3.7
O=C(Cc1coc(-c2ccc(F)cc2)n1)N1CCOCC1	1.5	3.9
CCc1ccc(-c2nc(C(=O)NCc3cccnc3)c(C)o2)cc1	0.94	-0.35
O=C1CC(=O)Nc2cc(S(=O)(=O)Nc3ccc(F)cc3F)ccc2N1	1	1.1
COc1ccc(NC(=O)c2c[nH]n3c(=O)cc(C4CCN(C(=O)OC(C)(C)C)CC4)nc23)cc1OC	0.89	-2.7
COc1cc(S(=O)(=O)NCCc2c(C)[nH]c3c(Cl)cccc23)c(C)cc1C	0.97	-0.085
COc1cccc(N2C(=O)CC(N3CCN(c4ccccn4)CC3)C2=O)c1 (configuration not stated)	1.1&1	0.84&0.12
COCCNC(=O)CN1CCN(Cc2ccc(Cl)cc2)C1=O	0.87	-1.9
COc1ccc(-n2nc(C(=O)NCC(=O)N3CCCC3)c3ccccc3c2=O)cc1OC	1.2	3.9
CC(=O)N1c2ccccc2NC2=C(C(=O)CCC2)C1c1ccccc1Cl (configuration not stated)	0.98	-0.83
O=C1c2ccccc2C(=O)N1CCCCCCN1CCN(c2cccc(Cl)c2)CC1	0.92	-2.1
O=C(Nc1cccc(-c2nc3ccccc3[nH]2)c1)c1ccc(Br)cc1	1.2	1.7
CCC(Cc1ccccc1)NC(=O)c1c[nH]c2ccc(S(=O)(=O)N3CCC(C)CC3)cc2c1=O (configuration not stated)	0.99	-0.12
CCOc1ccc(NC(=O)c2csc3c2CCCCC3)cc1	1	0.31
CCOC(=O)c1[nH]cnc1C(=O)N1CCOCC1	1	0.38

Shown field by field: part of the list above.
Compound: CCOC(=O)c1[nH]cnc1C(=O)N1CCOCC1
  CBX7 AlphaScr: 1	CBX7 AlphaScr z-score: 0.38

Compound: Cc1ccc(NC(=O)CCc2c(C)nc3c(-c4ccccc4)c(C)nn3c2C)c(C)c1
  CBX7 AlphaScr: 0.99	CBX7 AlphaScr z-score: -0.16

Compound: COCCCNC(=O)c1ccc2c(c1)ncn2C1CCCC1
  CBX7 AlphaScr: 0.98	CBX7 AlphaScr z-score: -0.51

Compound: CC1CCN(c2c(NCc3ccc(C(=O)NCc4ccccc4)cc3)c(=O)c2=O)CC1
  CBX7 AlphaScr: 0.99	CBX7 AlphaScr z-score: -0.29

Continuation.
SMILES	CBX7 AlphaScr	CBX7 AlphaScr z-score
O=C(Nc1ccc(Cl)c(-c2nc3ncccc3o2)c1)c1ccc(F)cc1	1.1	2
Cc1ccc(NC(=O)CCc2nnc3ccc(N4CCC(C)CC4)nn23)cc1C	1	0.073
COc1ccccc1Cc1nc2ccccc2n(CC(=O)c2ccccc2)c1=O	0.98	-0.52
COc1cccc(-c2cc(C(F)(F)F)nc(-n3nc(C(F)(F)F)cc3C)n2)c1	1.2	3.5
Cc1ccc2oc(-c3ccc(NC(=O)c4ccc(Br)cc4)cc3)nc2c1	0.79	-2.1
COc1ccc(Cl)cc1NC(=O)c1nccnc1C(=O)O	1	1.3
CCCN(CCC)CCNC(=O)C1CCN(c2nc3ccccc3[nH]2)CC1	1	0.34
O=C(Nc1ccc2oc(-c3cccc4c(Br)cccc34)nc2c1)c1ccccc1F	1	1.5
COc1ccc(CCNC(=O)CCc2c(C)nc3cc(-c4ccc(Cl)cc4)nn3c2C)cc1OC	0.95	-1
CCN(CC)CCn1c2ccccc2n2cc(-c3ccc(OC)c(OC)c3)nc12	0.9	-1.1
Cc1cc(C(=O)NCCN2CCN(c3cccc(Cl)c3)CC2)n(-c2ccccc2)n1	0.97	-1.3
Cc1cc(C)cc(OCC(=O)Nc2ccc3oc(-c4cccc(C)c4)nc3c2)c1	0.99	-0.35
Cc1cc(Br)ccc1NC(=O)c1cc2c(s1)-c1c(C)cccc1OC2	1.2	5.5
Cc1ccc(-c2nc3nc(C)cc(C)n3c2Nc2ccccc2C)cc1	0.87	-2.5
CCc1cccc(C)c1NC1c2ccccc2C(=O)N1c1ccc(C)cn1 (configuration not stated)	0.99	-0.26
COc1ccc(NC(=O)C2CCCN2S(=O)(=O)c2ccc3c(c2)CCC(=O)N3)c(OC)c1 (configuration not stated)	0.97	-0.53
